Screening data: PubChem, National Center for Advancing Translational Sciences (NCATS)
miR-21 FLuc = raises the signal of a miR-21 reporter. HeLa miR-21 FLuc reporter, luciferase, 48 h. 340,000 tested, under 10 active. Potency, µM (highest dose often 38.3 µM), without a hit: at the highest dose reporter change, positive = more light; active = well fitted rising curve with a large enough effect; inconclusive = small, poorly fitted or top-dose-only effect; inactive = no such curve, though single readings can be large or run the other way;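 further: % of control where 0% means no effect; miR-21 action dims this reporter so a rising signal means less miR-21 action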
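HeLa miR-21-FLuc reporter line, endogenous miR-21; 2000 cells/well in DMEM/10% FBS; compound titration up to ~40uM final, 48 h, 37 degree Celsius; luciferase detection reagent, 15 min lysis, CCD luminescence.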
GLA inh pH 4.5 = alpha-galactosidase A (human) inhibition, pH 4.5; 230,000 tested, under 10 active; activity change, negative = inhibition, % at 105 µM; purified enzyme, 4-MU-alpha-Gal fluorescence, pH 4.5; P06280; inconclusive = small, poorly fitted or top-dose-only inhibition, or a rising curve; inactive = flat fitted curve, though single readings scatter; no compound was filed as active;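 further: 0% = full activity with enzyme and -100% = basal without enzyme; dose as in the result columns while the protocol names 77 µM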
Target sequence (P06280 whole entry, looked up): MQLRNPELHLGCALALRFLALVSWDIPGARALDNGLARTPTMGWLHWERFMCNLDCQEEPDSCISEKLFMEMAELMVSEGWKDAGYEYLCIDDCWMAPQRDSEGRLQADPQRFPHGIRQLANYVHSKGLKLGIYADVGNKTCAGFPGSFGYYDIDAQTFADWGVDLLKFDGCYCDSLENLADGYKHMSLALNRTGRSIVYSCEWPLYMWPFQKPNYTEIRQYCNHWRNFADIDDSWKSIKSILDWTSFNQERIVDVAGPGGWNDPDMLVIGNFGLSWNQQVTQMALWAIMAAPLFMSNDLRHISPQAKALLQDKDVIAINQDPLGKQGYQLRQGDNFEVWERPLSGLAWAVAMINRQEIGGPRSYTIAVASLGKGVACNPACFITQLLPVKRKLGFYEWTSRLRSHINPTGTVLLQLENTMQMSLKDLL
Rango-impB inh = inhibitors of Rango-importin beta complex formation. Rango CFP/YFP FRET sensor + importin beta, 45 min. Potency, µM (titrated, usually from 92.2 µM), inactives show top-dose inhibition of complex formation. 340,000 compounds, 0.031% hits; active = rising FRET ratio curve, often small or poorly fitted; inconclusive = mostly compound fluorescence or quenching in the first reads; inactive = flat curves in all reads;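 further: potency means the concentration at half of the fitted maximal effect; 0% = DMSO wells and 100% = buffer wells lacking importin beta; nearly all actives have a fitted effect of over 15% in size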
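Inhibition scored from the CFP 486 nm/YFP 530 nm FRET ratio 45 min after adding 0.125 microM importin beta to 50 nM Rango biosensor preincubated 5 min with compound (room temperature, PBS with DTT, Tween-20, BSA). No-importin wells as positive control.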
Rango release inh = prevents RanGTP from dissociating the Rango-importin beta complex | O95149+P62826 | Biochemical FRET Rango-importin beta, RanGTP-induced dissociation | Potency, µM (highest dose often 46.1 µM), for the others: at the highest dose activity change, negative = inhibition | 340,000 compounds, 0.071% hits | AID 540253; active means falling FRET ratio curve, often poorly fitted, with flat reads before Ran was added; inconclusive means other falling curves, or compound fluorescence or quenching; inactive means flat or rising ratio curve;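 further: potency means the concentration at half of the fitted maximal effect; % of control where 0% means no effect; nearly all actives have a fitted effect of over 45% in size; -100% = wells without RanGTP and RCC1; the record marks most hits as doubtful in a second field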
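Rango (0.1 uM)–importin beta (0.25 uM) complex; RanGTP-RCC1 trigger; 45 min RT; CFP/YFP FRET read.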
The depositor's hits bear a star; ? = inconclusive; · = no result given; & = joins results of further samples.

SMILES | miR-21 FLuc | GLA inh pH 4.5 | Rango-impB inh | Rango release inh
COc1ccc(NC(=S)N2CCC(N(C)CCN3CCOCC3)CC2)cc1Cl | -10% | 4 | -0.3% | -2%
COc1ccccc1N1C(=O)S/C(=C\c2cccs2)C1=O | -1% | · | -3.1% | -11%
Cc1cc2c(SCc3ccccc3Cl)nc(N)nc2nc1C | · | · | -1.8% | 30%
Nc1cc(=O)[nH]c(SCC(=O)Nc2ccc(S(=O)(=O)N3CCOCC3)cc2)n1 | 1% | 2 | -1.2% | -4%
Cc1ccc(S(=O)(=O)N2CCCOC2CNC(=O)C(=O)NCc2ccc3c(c2)OCO3)cc1 (stereo not drawn) | 1% | · | 2.4% | 9%
Cc1cc(/C=N/NC(=O)c2cccnc2)c(C)n1CC(C)C | -38% | 5 | 2.3% | -12%
Cc1nnc(SCC(=O)NCC2COc3ccccc3O2)s1 (stereo not drawn) | · | · | -0.4% | 28%
Cc1ccc(S(=O)(=O)N2CCN(C(=O)CCC(=O)Nc3ccc(Br)c(C)c3)CC2)cc1 | · | · | -3.3% | 7%
Cc1ccc2c(COC(=O)c3n[nH]c4ccccc34)cc(=O)oc2c1 | -56% | 13 | -0.9% | 2%
COc1cc(C(C)=O)ccc1OCC(=O)NC(=O)Nc1ccc(C)cc1C | · | · | 1.1% | -1%
CCOC(=O)C(C)Sc1nnc(CSc2nc3nc(C)cc(C)n3n2)o1 (stereo not drawn) | -1% | 4 | 0.3% | 12%
Cc1cc(C)cc(NC(=O)CSc2nc3c(c(=O)[nH]2)CN(Cc2ccc(F)cc2)CC3)c1 | -6%&-6% | -3 | 1.6% | 1%
Nc1nc(SCc2ccc(Cl)cc2Cl)nc2nc3c(cc12)CCCC3 | -14% | -8 | -1.0% | 0%
C=CCn1c(=O)c(C(=O)NC2CC2)c(O)c2cc(OC)c(OC)cc21 | 4% | · | -0.9% | 12%
O=C1C=C(NCc2ccc(Cl)c(Cl)c2)C2(CCCCC2)O1 | 12% | -19 | 0.8% | 5%
CCOC(=O)C1CCN(CC(O)COCc2ccc(Cl)cc2)CC1 (stereo not drawn) | -3% | · | ? | 11%
Cc1cc(C)c2c(=O)[nH]c(SCC(=O)Nc3ccc(Br)cc3)nc2n1 | 16% | · | -0.6% | 7%
CC(C)Cn1c(-c2cccs2)nc2nc3ccccc3nc21 | 16% | ? | ? | ?
COC(Cc1nnc(SC)n1-c1ccccc1)OC | -8% | -10 | -0.6% | 8%
O=C(CSc1ncc(-c2ccc(F)cc2)[nH]1)N1CCCCC1 | -38% | 0 | 3.7% | 0%
Cc1ccc(CC(=O)Nc2ccc(S(=O)(=O)Nc3nccc(C)n3)cc2)cc1 | -8% | · | 1.2% | -3%
CCN(CC)CCCN(Cc1cc2cc(OC)ccc2[nH]c1=O)C(=O)Nc1ccccc1 | -1% | 3 | -6.6% | 1%
O=C(Cn1cc(C(F)(F)F)ccc1=O)Nc1cccc(S(=O)(=O)N2CCOCC2)c1 | -2% | 6 | -1.3% | 0%
CC(=O)N1CCC(N(CCN2CCOCC2)C(=S)Nc2cc(C)cc(C)c2)CC1 | -8% | 6 | 2.4% | 14%
CCCc1ccc2oc(C(=O)N3CCC[C@H]3CO)c(C)c2c1 | -51% | · | -5.0% | -9%
C=C(C)C1Cc2nc(N)nc(C)c2C1 (stereo not drawn) | -18% | 7 | -0.4% | -3%
CN(c1ccccc1)S(=O)(=O)c1cccc(NC(=O)Cc2ccc(Cl)cc2)c1 | · | · | -1.3% | -4%
Cc1cc(O)c(C(C)C)cc1N=Nc1ccccc1C(=O)O | 0% | -9 | 2.7% | 21%
O=C(N/N=C/c1c(Cl)cccc1Cl)c1cccc(F)c1 | -20% | -19 | 2.4% | 0%
COc1ccc(C=O)cc1OC(=O)N1CCOCC1 | 0% | · | -2.4% | 27%
Cc1occc1-c1nnc(SCc2nc3ccccc3c(=O)n2CC#N)n1C | -8% | -11 | ? | -18%
Nn1c(SCC(=O)Nc2ccc(F)cc2)nnc1-c1ccccn1 | 1% | -7 | -0.7% | -12%
CC(=O)Nc1ccc(N=Nc2c(C)[nH]n(C(N)=S)c2=O)cc1 | -40% | -11 | 2.0% | -19%
N#Cc1cccc(S(=O)(=O)Nc2c(NC3CCCCC3)c3ccccc3oc2=O)c1 | 1% | · | 6.8% | 7%
CCOc1ccc(OCCCC(=O)ON=C(N)c2ccccc2C)cc1 | · | · | 3.6% | -5%
O=C(/C=C/c1ccc(S(=O)(=O)N2CCOCC2)cc1)NC(=S)Nc1ccc(Cl)cc1Cl | -2% | -21 | 4.9% | 8%
CC(C)C(=O)NC(=S)Nc1ccc(S(=O)(=O)Nc2ccccc2)cc1 | -2% | -2 | -0.2% | 0%
O=C(N/N=C/c1ccc(OCCCF)cc1)c1cc(OCC(F)(F)F)ccc1OCC(F)(F)F | -15% | 6 | 2.1% | -8%
COc1ccc(OC)c(/C=N/NC(=O)c2cc3c(OC)cccc3[nH]2)c1 | 9% | 3 | ? | 24%
CN(C)c1ccc(C=Cc2cnccn2)cc1 | · | · | ? | ?
CCn1c(CCNC(=O)c2ccc(Cl)cc2)n[nH]c1=S | -11% | -3 | 0.3% | 3%
CC(OC(=O)c1cc(S(=O)(=O)N2CCOCC2)ccc1Br)C(=O)N1CCOCC1 (stereo not drawn) | · | · | -2.2% | -3%
COc1ccc(OC)c(C(=O)COC(=O)c2cc(C)oc2C)c1 | -20% | -12 | 5.4% | 4%
CC1(C)CN(c2ccc(Br)cc2Br)C1=O | -7% | 3 | 0.1% | -9%
CC(C)(C)NCC(=O)c1c[nH]c2ccccc12 | -1% | -11 | -0.9% | 0%
Cc1cc(C)n(-c2ncnc3c2oc2ccccc23)n1 | -35% | -8 | -2.1% | 2%
CC1(C)C2CCC1(C)C(OCCNCCOC(=O)Nc1ccccc1)C2 (stereo not drawn) | 2% | -7 | -0.7% | 5%
Cc1ccc(C(=O)N2CCCC(CCC(=O)NCc3ccc(F)c(F)c3)C2)cn1 (stereo not drawn) | -14% | · | 0.9% | 5%
CCCC1CC(CSc2ncn[nH]2)OC1=O (stereo not drawn) | 0% | 11 | -6.4% | -4%
COCCNC(=O)c1cc(Br)ccc1Cl | 1% | -7 | 0.2% | 16%
CCc1cc2c(=O)n(Cc3ccco3)c(SCc3c(C)noc3C)nc2s1 | 24% | 1 | 0.1% | -6%
CC(C)OC(=O)c1cccc(C(=O)Oc2ccccc2)n1 | 1% | 13 | 3.8% | 1%
NC(=O)C1(N2CCCCC2)CCN(CC(=O)Nc2ccccc2-c2ccccc2)CC1 | -3% | -8 | 1.2% | -20%
NC(=O)C1CCN(C2=C(NS(=O)(=O)c3ccccc3)C(=O)c3ccccc3C2=O)CC1 | 4% | -2 | 0.9% | 0%
COc1ccc(Br)cc1CN1CCSCC1 | -1% | · | -3.1% | 10%
CC(C(=O)N(C)CC(=O)Nc1ccccc1C(F)(F)F)N1C(=O)c2ccccc2C1=O (stereo not drawn) | · | · | -0.3% | 8%
COc1ccc(CC(=O)N/N=C/c2cccs2)cc1OC | 0% | · | 4.5% | -3%
CSCCC(NC(=O)COc1ccccc1)C(=O)OCc1ccc([N+](=O)[O-])cc1 (stereo not drawn) | · | · | 5.0% | 12%
COC(=O)C1=C(C)N=C2SC(C#N)=C(N)N2C1c1ccc(OC)cc1 (stereo not drawn) | -5% | -1 | ? | ?
COc1c(O)ccc2c1CN1CCc3cc4c(cc3C1C2)OCO4 (stereo not drawn) | 23% | -4 | ? | ?

(further entries)
SMILES | miR-21 FLuc | GLA inh pH 4.5 | Rango-impB inh | Rango release inh
Cc1ccc([C@H]2C(C(=O)O)=C[C@@H](C(C)(C)C)N2S(=O)(=O)c2ccc(C)cc2)cc1 | · | · | -3.1% | 9%
CN(C)S(=O)(=O)c1cccc(NC(=S)N(CCC#N)Cc2cccnc2)c1 | -1% | -5 | 2.6% | -8%
O=C(OCc1ccccc1)C1=NNC2C(=O)N(c3ccc(Br)cc3)C(=O)C12 (stereo not drawn) | 5% | 1 | 3.6% | 0%
Cc1nc(NCc2cccnc2)c2c3c(sc2n1)CC(C)CC3 (stereo not drawn) | -40% | 3 | 1.3% | -4%
CSc1nc(C)cc(SC(C(C)=O)C(=O)Nc2ccccc2)n1 (stereo not drawn) | -17% | 6 | 0.2% | -14%
CCC1(c2ccccc2)NC(=S)N(c2ccc(C)cc2)N1 (stereo not drawn) | -42% | 1 | -1.9% | -6%
COc1ccc(OCC(=O)Nc2cccc(OC)c2)cc1 | -11% | 0 | -0.5% | 38%
CC(C)CC(=O)Nc1ccc(-c2nnn(CC(=O)NCc3ccco3)n2)cc1 | -26% | -19 | -3.2% | 4%
CCN(CC)CCCSc1nc2ccccc2s1 | -36% | 2 | -1.6% | 12%
Cc1cc(NCCCOC(C)C)n2c(nc3ccccc32)c1C#N | 3% | · | ? | ?
Cc1cc(C)n2nc(C(=O)Nc3ccc4c(c3)CCC4)nc2n1 | -25% | 7 | -0.2% | -7%
CC(NC(=O)Oc1cccc2ccccc12)c1ccccc1 (stereo not drawn) | · | · | -0.6% | -14%
COc1cc(C2NC(=O)NC(C)=C2C(=O)OC2CCCC(C)C2)ccc1O (stereo not drawn) | -20% | -3 | 0.2% | 11%
N/C(CS(=O)(=O)c1ccccn1)=N\OC(=O)c1ccccc1Cl | -60% | -1 | -3.3% | 5%
CSc1nnc(CNS(=O)(=O)c2ccc(F)cc2)n1C | 1% | · | 0.9% | 1%
CCOc1ccc(NCC(=O)N/N=C/C=C/c2ccccc2)cc1 | -17% | 7 | 1.9% | -14%
COc1ccc2c(c1)c1ncnc(N3CCN(Cc4ccc5c(c4)OCO5)CC3)c1n2C | -20% | 3 | · | ·
O=c1ccc(-c2nc3cc(Cl)ccc3n2Cc2ccccc2)c[nH]1 | 14% | 4 | -4.3% | 13%
O=c1[nH]c(Nc2ccccc2)cc2cc(Br)ccc12 | · | · | ? | ?
COC(=O)[C@@]1(Cc2ccc(OC)cc2)[C@H]2c3cc(C(=O)N(C)C)n(CCSCCO)c3C[C@H]2CN1C(=O)c1ccccc1 | -6% | 9&-8 | 1.9% | -17%
Cc1cccc(OCC(=O)N2CCC(N3CCCCCC3)CC2)c1 | -7% | -11 | ? | 1%
COC(=O)CNC(=O)C1Nc2ccc(OC(F)(F)F)cc2C2C=CCC12 (stereo not drawn) | · | · | 4.7% | -18%
CC(=O)N(C)c1ccc(NC(=O)C(c2ccccc2)c2ccccc2)cc1 | · | · | 3.3% | -7%
Cc1ccc(S(=O)(=O)N2CCN(c3ccccc3)CC2)cc1 | 0% | · | 3.3% | 7%
CCOC(=O)c1c(NCc2ccccc2)n[nH]c1C | -20% | -4 | 0.6% | 3%
Cn1cc(/C(Cc2ccccc2)=N\O)c2ccccc21 | 12% | -5 | 2.7% | 5%
Cc1ccc(NC(=O)c2nc3nccc(C)n3n2)c(C)c1 | -40% | 3 | -1.0% | -1%
CN(CCCNC(=O)C1CCCN(S(=O)(=O)c2cnc[nH]2)C1)c1ccccc1 (stereo not drawn) | -2% | -1 | -1.1% | -1%
CCOC(=O)c1[nH]c(C)c(C(=O)c2ccc(C)cc2)c1C | -10% | 5 | 1.4% | 1%
Cc1nc(CCNC(=O)Cc2ccc(F)cc2)cs1 | -5% | -1 | 0.1% | -11%
COc1ccc(Cl)cc1NC(=O)CN(C)C(=O)c1ccc(N2CCCCC2)c([N+](=O)[O-])c1 | · | · | 3.2% | 0%
O=C(Cc1ccc(F)cc1)NCc1cccnc1 | -8% | 5 | -1.8% | 1%
O=C(C[n+]1ccccc1)Nc1ccccc1C(F)(F)F | -1% | · | -0.9% | -4%
C=CCSc1nsc(NC(=O)Nc2cccc(C(C)=O)c2)n1 | ? | · | -0.9% | 0%

Some of these compounds in order of SMILES length, largest number first:
SMILES | miR-21 FLuc | GLA inh pH 4.5 | Rango-impB inh | Rango release inh
C=CCn1c(=O)c(C(=O)NC2CC2)c(O)c2cc(OC)c(OC)cc21 | 4% | · | -0.9% | 12%
Cc1ccc(S(=O)(=O)N2CCN(c3ccccc3)CC2)cc1 | 0% | · | 3.3% | 7%
CC(C)OC(=O)c1cccc(C(=O)Oc2ccccc2)n1 | 1% | 13 | 3.8% | 1%

The list is partial; count on the stated rates, not on these rows.
